MARV entry inh = qHTS for inhibitors of binding or entry into cells for Marburg Virus; Marburg virus pseudotyped entry inhibition, cell reporter; control for the full effect not named in the record; about a third of the inactives were read at about 46 µM; Potency, µM (doses to about 37.8 µM), inactives show at the top dose activity change, negative = inhibition, usual class: inhibitors; actives 1.8% (n = 300,000); AID 540276, 2011; active = well fitted inhibition curve with a large enough effect; inconclusive = small, poorly fitted or top-dose-only effect, or effect the other way; inactive = flat fitted curve, though single readings scatter; tested in HEK293 cells; about a fifth of its hits are not listed in these tables; note: % is set by controls: 0 for no effect and ±100 for the full control effect; luciferase read-out
SARS PLpro yeast = qHTS of Yeast-based Assay for SARS-CoV PLP | actives 0.19% (n = 330,000) | AID 485353, 2010 | Potency, µM (top dose mostly 32.9 µM), for the others: at the highest dose activity, positive = growth rescue | S. cerevisiae expressing SARS-CoV PLpro, growth rescue; control for the full effect not named in the record; note: 0% is about no effect; nearly all actives have a fitted effect of over 55% in size; growth read by luminescence after 48 h
Cruzain noTriton = qHTS Assay for Promiscuous and Specific Inhibitors of Cruzain (without detergent); Potency, µM, for the others: max response, negative = inhibition, most hits filed as inhibitors; actives 2.3% (n = 200,000); purified cruzain, Z-FR-AMC fluorescence, no detergent; active = well fitted curve in the direction sought with a large enough effect; inconclusive = small, poorly fitted or top-dose-only effect, or another doubt; inactive = no such curve, though single readings can be large; an effect the other way counts as inactive or inconclusive;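 note: plate controls were enzyme without inhibitor for no effect and buffer without enzyme for full effect; nearly all actives have a fitted effect of over 40% in size; top concentration of the series not given in the record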
Target sequence (P25779 123-467 limits assumed): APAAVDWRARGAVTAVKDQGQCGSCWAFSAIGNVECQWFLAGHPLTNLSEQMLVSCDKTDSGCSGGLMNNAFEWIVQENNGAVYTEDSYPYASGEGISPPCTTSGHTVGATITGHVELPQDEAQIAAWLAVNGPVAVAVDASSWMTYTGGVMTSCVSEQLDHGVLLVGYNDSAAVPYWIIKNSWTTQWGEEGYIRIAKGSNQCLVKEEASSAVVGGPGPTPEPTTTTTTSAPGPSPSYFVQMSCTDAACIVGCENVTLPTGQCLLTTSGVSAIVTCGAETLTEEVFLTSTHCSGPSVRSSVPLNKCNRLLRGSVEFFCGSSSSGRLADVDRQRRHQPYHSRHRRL
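Purified cruzain at 1.5 nM, pre-incubated 15 min with compound at room temperature in 100 mM sodium acetate pH 5.5, 5 mM DTT, 0.00005% Triton X-100. Reaction started with 2 uM Z-FR-AMC; AMC fluorescence increase over 60 s gives rate.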
NS1 inh = qHTS Assay for Inhibitors of Influenza NS1 Protein Function. S. cerevisiae slowed by influenza A NS1, growth recovery by OD600. Potency, µM (titrated, usually from 46.1 µM), inactives show at the highest dose activity, positive = more growth. actives 0.4% (n = 270,000). AID 2326, 2010; note: actives are rising curves; nearly all actives have a fitted effect of over 50% in size
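S. cerevisiae expressing influenza A NS1, grown in glucose, washed, then diluted 1:100 into pH 6.0 -URA galactose medium with 23 nl compound. Growth recovery read as OD600; NS1-free strain serves as control.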
Cruzain Triton = qHTS Assay for Promiscuous and Specific Inhibitors of Cruzain (with detergent); actives 0.43% (n = 200,000); Potency, µM, for the others: max response, negative = inhibition, actives largely listed as inhibitors; Cruzipain (Trypanosoma cruzi), P25779; purified cruzain, Z-FR-AMC fluorescence, 0.01% Triton; active = well fitted curve in the direction sought with a large enough effect; inconclusive = small, poorly fitted or top-dose-only effect, or another doubt; inactive = no such curve, though single readings can be large; an effect the other way counts as inactive or inconclusive;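 note: plate controls were neutral wells for no effect and buffer without enzyme for full effect; nearly all actives have a fitted effect of over 40% in size; top concentration of the series not given in the record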
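Detergent-containing run (0.01% Triton X-100) in acetate buffer pH 5.5 with 5 mM DTT: enzyme at 1.5 nM final, 15 min compound preincubation at room temperature, then 2 uM Z-FR-AMC substrate. Activity taken as 60 s fluorescence increase at 360/450 nm.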
Numbers without * were called inactive; ? = inconclusive; . = not tested or not shown; & = joins results of further samples; [ ] = remark or other dose. Unless noted, calls come from the whole dose curve; as a rule, active means well fitted rising curve with a large enough effect; inconclusive means small, poorly fitted or top-dose-only effect; inactive means no such curve, though single readings can be large or run the other way. Potency is the fitted concentration of half-maximal effect. This is a subset; count on the stated rates, not on these rows.

SMILES	MARV entry inh	SARS PLpro yeast	Cruzain noTriton	NS1 inh	Cruzain Triton
C[C@@H](NS(=O)(=O)c1c(F)cccc1F)c1ccccc1	?	.	.	.	.
Cn1c(NC[C@@H](O)c2ccccc2)nc2c1c(=O)n(Cc1ccc(Cl)cc1)c(=O)n2C	-7%	.	.	.	.
CC1(OC(=O)c2ccc(Cl)nc2)C(=O)Cc2cc(-c3ccsc3)ncc2C1=O (stereo not drawn)	?	.	.	.	.
CC1(OC(=O)C2CCCC2)C(=O)C=C2C=C(c3ccsc3)N(c3cccc(C#N)c3)C=C2C1=O (stereo not drawn)	11%&11%[14.2 µM]	.	.	.	.
C[S+](=O)([O-])c1sc(C(=O)NC(=S)NC2CCC(OC(F)(F)F)CC2)c2c1C=CCC2 (stereo not drawn)	-2%[46.1 µM]	.	.	.	.
Cc1cc(C)nc(-n2nc(C)cc2NC(=O)c2ccc(Br)o2)n1	5%	.	.	3%	.
O=C(CCn1c(=S)[nH]c2cc3c(cc2c1=O)OCO3)N1CCN(C2CCCCC2)CC1	0%	.	.	12%	.
Cc1c(C(=O)N2CCN(c3ccccc3)CC2)sc2ncnc(N3CCN(c4ccccc4)CC3)c12	1%	.	.	18%	.
CCc1nnc(NC(=O)CSc2nnc(CSc3nc(C)cc(C)n3)n2CC)s1	-5%	.	.	-3%	.
Cc1nc(N2CCc3ccccc32)[nH]c(=O)c1CCC(C)C	3%	.	.	-1%	.
CN(C(=O)c1ccccn1)c1nnc(-c2ccncc2)s1	1%	.	.	4%	.
COC(=O)c1ccccc1NC(=O)c1cc(-c2ccc(OC)c(OC)c2)on1	4%	.	.	12%	.
O=C(OCN1C(=O)c2ccccc2C1=O)c1ccc2c(=O)n3c(nc2c1)CCC3	2%	.	.	6%	.
Cc1ccc(-c2nnc3c4ccccc4c(C)nn23)cc1NC(=O)c1ccco1	0%	.	.	1%	.
COc1cccc(C2C(C(=O)c3ccc(C)o3)=C(O)C(=O)N2CCCN(C)C)c1 (stereo not drawn)	-4%	.	.	9%	.
CC1CC(C)CN(Cc2nc3c(c(=O)n(C)c(=O)n3C)n2Cc2ccccc2Cl)C1 (stereo not drawn)	7%	.	.	0%	.
Cc1ccc(Cc2c(C)nc3c(C(=O)O)cnn3c2C)cc1	2%	.	.	5%	.
CCOC(=O)c1sc(NC(=O)CSc2nnc3c4ccccc4n(CC)c3n2)nc1C	-2%	.	.	-37%	.
Cc1nc(NC2=NCN(CC3CCCO3)CN2)nc2ccccc12 (stereo not drawn)	2%	.	.	-6%	.
COC(=O)c1ccc(CSc2nc(-c3ccc(OC)cc3)nc3c2c(=O)n(C)c(=O)n3C)o1	3%	.	.	2%	.
CCCCCCNC(=O)c1c(N)n(/N=C/c2ccco2)c2nc3ccccc3nc12	-8%	.	.	?	.
CC(=O)c1cc2c(cc1NC(=O)CN1CCN(C(=O)c3ccco3)CC1)OCO2	1%	.	.	-4%	.
CCCn1c2c(c(O)c(C(=O)Nc3ccc(C)cn3)c1=O)CCCC2	2%	.	.	-2%	.
Cc1cncn1CCc1nc2c3ccccc3nc(=S)n2[nH]1	1%	.	.	3%	.
Cn1c2c(c(=O)n(C)c1=O)C(c1cccc(Br)c1)C1C(=O)c3ccccc3C1=N2 (stereo not drawn)	-1%	.	.	1%	.

Single records, from the list above. Order of values: MARV entry inh | SARS PLpro yeast | Cruzain noTriton | NS1 inh | Cruzain Triton
CC1(OC(=O)c2ccc(Cl)nc2)C(=O)Cc2cc(-c3ccsc3)ncc2C1=O (stereo not drawn) is listed with ? | . | . | . | .
CCc1nnc(NC(=O)CSc2nnc(CSc3nc(C)cc(C)n3)n2CC)s1 is listed with -5% | . | . | -3% | .
O=C(CCn1c(=S)[nH]c2cc3c(cc2c1=O)OCO3)N1CCN(C2CCCCC2)CC1 is listed with 0% | . | . | 12% | .
CC1(OC(=O)C2CCCC2)C(=O)C=C2C=C(c3ccsc3)N(c3cccc(C#N)c3)C=C2C1=O (stereo not drawn) is listed with 11%&11%[14.2 µM] | . | . | . | .
Cn1c2c(c(=O)n(C)c1=O)C(c1cccc(Br)c1)C1C(=O)c3ccccc3C1=N2 (stereo not drawn) is listed with -1% | . | . | 1% | .

Rewritten as a markdown table: three of the compounds above.
| smiles | MARV entry inh | SARS PLpro yeast | Cruzain noTriton | NS1 inh | Cruzain Triton |
| --- | --- | --- | --- | --- | --- |
| Cc1cc(C)nc(-n2nc(C)cc2NC(=O)c2ccc(Br)o2)n1 | 5% | . | . | 3% | . |
| O=C(CCn1c(=S)[nH]c2cc3c(cc2c1=O)OCO3)N1CCN(C2CCCCC2)CC1 | 0% | . | . | 12% | . |
| Cc1c(C(=O)N2CCN(c3ccccc3)CC2)sc2ncnc(N3CCN(c4ccccc4)CC3)c12 | 1% | . | . | 18% | . |

The results go on:
SMILES	MARV entry inh	SARS PLpro yeast	Cruzain noTriton	NS1 inh	Cruzain Triton
CCc1cc2c(=O)c(-c3nc4ccccc4[nH]3)coc2c(CN2CCC(C)CC2)c1O	1%	.	.	5%	.
CC1CCN(CCn2c(=S)[nH]c3ncccc3c2=O)CC1	2%	.	.	-6%	.
O=C(O)CNC(=O)[C@@H](CS)Cc1ccccc1	4%	.	-6%	.	-2.4%
COC(=O)N[C@@H](/C=C/c1ccccc1)C[N+](=O)[O-]	7%[14.2 µM]	.	-5%	.	3.6%
CC(Nc1oc(-c2ccccc2)nc1-c1cccc2ccccc12)c1ccccc1 (stereo not drawn)	?	.	-28%	.	-1.8%
C=C(C(=O)C(C)(C)O)C(O)c1ccc([N+](=O)[O-])cc1 (stereo not drawn)	?	.	-11%	.	4.6%
O=C(NCCOc1ccccc1)O[C@@H]1C(=O)c2cc(Br)ccc2O[C@H]1c1ccc2c(c1)OCO2	?	.	-1%	.	-2.4%
COC(=O)NC(C(=O)OC)(C(=O)OC)c1ccccc1	?	.	3%	.	2.0%
COC(=O)N1[C@H]2CC[C@@]3(C)C=C(C)O[C@]1(C)C3c1ccccc12	?	.	3%	.	0.6%
COc1ccc2c(c1)C(=O)[C@@H](OC(=O)NCCc1ccc(OC)c(OC)c1)[C@H](c1ccc(OC)c(Br)c1)O2	-20%&-20%[14.2 µM]	.	-1%	.	-4.4%
O=C(/C=C/c1ccc2c(c1)OCO2)c1ccccc1	?	.	-1%	.	-2.1%
C=C(C)C(=O)/C=C/CCC/C=C/C(=O)OCC	7%[14.2 µM]	.	2%	.	-7.4%
C=C(C(C)=O)C(O)c1cccc(OC)c1 (stereo not drawn)	?	.	-3%	.	2.3%
C=C(C)C(=O)c1ccc2c(c1)OCO2	0%&0%[14.2 µM]	.	-3%	.	3.6%
C=C(C(C)=O)C(O)/C=C/c1ccco1 (stereo not drawn)	3%[14.2 µM]	.	16%	.	2.0%
Cc1ccccc1Nc1oc(-c2ccccc2)nc1-c1cccs1	?	.	-14%	.	0.0%
C=CC[C@](C)(Nc1ccc(OC)cc1)C(=O)OCC	7%&7%[14.2 µM]	.	10%	.	1.9%
COc1ccc(-c2nc(-c3ccccc3)c(NCc3ccccc3)o2)cc1	12%&12%[14.2 µM]	.	-2%	.	3.4%
CC(=O)O[C@@H](C)C[N+](C)(C)C	-21%&-21%	.	2%	.	-3.2%
NS(=O)(=O)c1cc2c(cc1Cl)N[C@@H](C(Cl)Cl)NS2(=O)=O	-13%	.	1%	.	2.3%
C=C(C(=O)OCC)C(=O)c1ccccc1	-7%&-7%[14.2 µM]	.	-5%	.	-1.0%
C=C(C)C(=O)/C=C/C=C/c1ccccc1	-87%[14.2 µM]	.	1%	.	3.0%
CCOC(=O)/C(C)=N/NC(C)=O	-17%[14.2 µM]	.	-3%	.	7.9%
COCOc1ccc(OC)cc1C(=O)/C=C/c1ccc(OC)c(Br)c1	?	.	0%&-3%	.	-1.5%&3.6%
COC(=O)C/C=C/[C@@H](C)[C@H](NC(=O)OCC(Cl)(Cl)Cl)c1ccccc1	0%[14.2 µM]	.	3%	.	-2.4%

Just MARV entry inh, for 3 of the compounds above:
Molecule	MARV entry inh
CC(Nc1oc(-c2ccccc2)nc1-c1cccc2ccccc12)c1ccccc1 (stereo not drawn)	?
C=C(C(=O)C(C)(C)O)C(O)c1ccc([N+](=O)[O-])cc1 (stereo not drawn)	?
O=C(NCCOc1ccccc1)O[C@@H]1C(=O)c2cc(Br)ccc2O[C@H]1c1ccc2c(c1)OCO2	?

Next part
SMILES	MARV entry inh	SARS PLpro yeast	Cruzain noTriton	NS1 inh	Cruzain Triton
COc1ccc(C(=O)[C@]2(C)C=C(c3ccc(OC)cc3)[C@H](C)C2)cc1	10%[14.2 µM]	.	4%	.	1.7%
C=CCOC(=O)N[C@H](c1ccco1)C(C(C)=O)C(C)=O	9%&9%[14.2 µM]	.	-13%	.	3.9%
c1ccc(-c2nc(-c3cccs3)c(NC3CCCCC3)o2)cc1	-19%&-19%[14.2 µM]	.	-14%	.	1.0%
C[C@@H]1C[C@](C)(C(=O)c2ccc3ccccc3c2)C=C1c1ccc2ccccc2c1	-5%[14.2 µM]	.	-8%	.	2.1%
COC(=O)[C@H](COC(C)(C)C)NC(=O)O[C@@H]1C(=O)c2ccc(OC)cc2O[C@H]1c1ccc2c(c1)OCO2	?	.	2%	.	-0.8%
COC(=O)[C@H](COC(C)(C)C)NC(=O)O[C@@H]1C(=O)c2cc(OC)ccc2O[C@H]1c1ccc(OC)c(Br)c1	-47%&-47%&-47%[14.2 µM]	.	8%	.	1.8%
COC[C@@H](O)[C@@H](OC)[C@H](OC)[C@H](Cc1c(OC)cc(OC)cc1OC)OC	-4%&-4%[14.2 µM]	.	-9%	.	0.7%
COC(=O)N[C@@H](/C=C/c1ccccc1)[C@@H](C)[N+](=O)[O-]	2%[14.2 µM]	.	5%	.	4.0%
C=C(C(C)=O)C(O)c1ccccc1 (stereo not drawn)	?	.	-17%	.	-0.8%
O=C1CCCC(C(C(=O)OCc2ccccc2)C(=O)OCc2ccccc2)C1 (stereo not drawn)	?	.	2%	.	1.2%
C=CCc1ccccc1OC[C@H](O)CNC(C)C	?	.	-1%	.	-3.2%
CC(=O)O[C@H](C(=O)O[C@@H]1C[C@@H](CCC[C@H]2O[C@H](C(=O)OC(C)C)CC[C@@H]2C)O[C@@H](CC#N)C1)c1ccccc1	7%&7%[14.2 µM]	.	30%	.	0.2%
O=P1(O)Oc2c(-c3ccccc3)cc3ccccc3c2-c2c(c(-c3ccccc3)cc3ccccc23)O1	55%&55%[14.2 µM]	.	?	.	?
N#Cc1ccc2c(c1)C[C@]1(CCCCN3C(=O)c4ccccc4C3=O)Oc3cc(-c4ccccc4)oc(=O)c3[C@H]2O1	21%&21%[14.2 µM]	-1%[6.58 µM]	.	16%	.
COc1cc2c(cc1OC)C1OC(c3ccsc3)(C2)Oc2cc(C)oc(=O)c21 (stereo not drawn)	-40%[14.2 µM]	3%[6.58 µM]	.	22%	.

Screening results: PubChem, National Center for Advancing Translational Sciences (NCATS)
